# Assay outcomes: PubChem BioAssay, ICCB-Longwood Screening Facility, Harvard Medical School
# MgrA DNA FP – alters Staphylococcus aureus MgrA binding to DNA | fluorescence polarization | inhibition, %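 (about 10 µg/mL by stock and volumes)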 | 0.13% of 84,000 active;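 active = above 50% in either of two replicates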;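 note: 0% = protein plus DNA without compound and 100% = DNA alone without protein; higher means less MgrA bound to DNA so lower polarization; one replicate is shown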
# Sa helicase inh – blocks Staphylococcus aureus DNA helicase; 0.05% of 120,000 active; inhibition, %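 (tested at about 80 µM)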; purified S. aureus helicase, fluorescence unwinding assay; about half of the hits fall short of the stated cut;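 active = both duplicates at 50% or more, or one of them with a favoured structure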;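 note: 0% = mean of negative control wells and 100% = mean of positive control wells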
# Active calls of the source: *; x = not tested or not shown; & = joins results of further samples. An excerpt; the hit share may differ from the screen's.
# Screens in order: MgrA DNA FP | Sa helicase inh
- CC[C@H]1OC(=O)[C@H](C)[C@@H](OC2CC(C)(OC)C(O)C(C)O2)[C@H](C)[C@@H](OC2OC(C)CC(N(C)C)C2O)[C@](C)(O)C[C@@H](C)/C(=N\OCOCCOC)[C@H](C)[C@@H](O)[C@]1(C)O (stereo partly drawn)
    -0.1 | x
- CCCCN1CCN(c2nc(-c3ccccc3)c3cc(C)ccc3n2)CC1
    -1.4 | 9
- CC(=O)N1CCc2cc(N=Cc3ccc(Cl)cc3)ccc21
    -0.3 | -13
- Cc1ccc(S(=O)(=O)N2Cc3ccccc3C(C)CC23CCCCC3)cc1 (stereo not drawn)
    -1.2 | x
- COc1ccc(-n2cc(C(=O)NCCN(Cc3ccco3)C3CCCC3)c3ccccc3c2=O)cc1
    x | -12
- Cc1ccc2c(c1)C1C3CCC(C3)C1S(=O)N2 (stereo not drawn)
    -4.2 | -8
- O=C1CC(=O)CC(c2ccccc2)C1
    1.8 | x
- NC(=O)c1ccccc1NC(=O)COc1ccc2c(c1)OCO2
    0.8 | 3
- COC(=O)c1oc2ccccc2c1COc1ccccc1
    x | -4
- Nc1[nH]c(=S)ncc1S(=O)(=O)c1ccccc1
    2.0 | 9&8
- CCN(CC)S(=O)(=O)c1cc(Br)cnc1N
    1.1 | 12
- CCCS(=O)(=O)n1nc(-c2ccc(OC)cc2OC)cc1N
    x | 5
- O=C(NCCc1ccc(Cl)cc1)c1cccnc1Oc1ccccc1
    -0.2 | x
- COc1ccc(NC(=O)C2C(=O)NC3(C)CC2c2ccccc2O3)cc1 (stereo not drawn)
    x | 32
- O=C1N=C(N2CCOCC2)SC1=C1CCCC1
    -0.1 | 0
- Cc1ccc2[nH]c(=O)c(NCN3CCCCC3)c(-c3ccccc3)c2c1
    x | -1
- COc1ccc(NC(=O)c2cc3nc(-c4ccc5c(c4)OCO5)cc(C(F)(F)F)n3n2)c(OC)c1
    1.4 | x
- CC(C)CN1C(=O)c2ccc(C(=O)Nc3ccc(OCC(=O)O)cc3)cc2C1=O
    x | -11
- CC(C)N1C(=O)S/C(=C\c2ccc(-c3cccc(C(F)(F)F)c3)o2)C1=O
    2.6 | 10
- COC(=O)C12CC3CC(CC(NC(C)=O)(C3)C1)C2
    0.8 | 9
- CCCC1=NN(c2ccc(S(N)(=O)=O)cc2)C(=O)C1
    1.1 | x
- N/C(Cc1ccc(Cl)cc1Cl)=N\OC(=O)c1ccc(Br)o1
    1.0 | 9
- COc1ccccc1-c1nnc(SCC(=O)NC2CCCCC2)o1
    x | 21
- C[N+]1=C(/C=C/Nc2ccccc2)SCC1
    -1.4 | -2
- CC(=O)Nc1nnc(SCC(=O)N2CCCC2)s1
    -1.4 | 1
- NS(=O)(=O)c1ccc(NC(=O)C2=COCCO2)cc1
    x | 16
- C/C(=N\N1C(=O)CN(Cc2ccccc2)C1c1ccco1)c1ccc(Cl)cc1 (stereo not drawn)
    4.1 | 9
- Cc1ccc(C)c(S(=O)(=O)Nc2ccc3oc4c(c3c2)CC(C(C)(C)C)CC4)c1 (stereo not drawn)
    1.0 | 3
- CCc1ccc(NC(=O)CC(C(=O)O)N2CCCCC2)cc1 (stereo not drawn)
    x | -4
- COC(=O)Nc1ccc(SC(F)(F)F)cc1
    -2.2 | x

# Retrieved one by one from the entries so far, three records:
# Screens in order: MgrA DNA FP | Sa helicase inh
- COc1ccc(NC(=O)C2C(=O)NC3(C)CC2c2ccccc2O3)cc1 (stereo not drawn)
    x | 32
- CCCCN1CCN(c2nc(-c3ccccc3)c3cc(C)ccc3n2)CC1
    -1.4 | 9
- CC(C)CN1C(=O)c2ccc(C(=O)Nc3ccc(OCC(=O)O)cc3)cc2C1=O
    x | -11

# More entries follow:
# Screens in order: MgrA DNA FP | Sa helicase inh
- S=C(Nc1ccccc1)N1CCN(Cc2ccccc2)CC1
    x | 35
- O=C(c1cnn(-c2ccccc2)c1-n1cccc1)N1CCc2ccccc21
    0.0 | 10
- CC(C)(C)c1cc2nc(C(F)(F)F)cc(Sc3ccccc3)n2n1
    1.1 | x
- N=C1SCC(=O)N1/N=C/c1ccccc1
    1.2 | 7
- O=C(c1ccc(N2CCOCC2)nc1)N1CCSCC1
    -0.1 | x
- CCOC(=O)c1oc2ccccc2c1CN1NS(=O)(=O)c2ccccc2C1=O
    x | 6
- Cc1ccc(S(=O)(=O)NCCN2C(=N)N(c3nc(N(C)C)nc(N(C)C)n3)CC2=O)cc1
    -1.6 | 8
- O=C(c1ccc2nsnc2c1)N(Cc1ccccn1)Cc1ccccn1
    0.1 | x
- Cn1c(=O)c(C(=O)NCc2cccnc2)cc2cccnc21
    x | 14
- c1ccc(CSc2nc3ccccc3n3cnnc23)cc1
    -0.8 | 4
- COc1cc(N)c(Cl)cc1C(=O)OCC(=O)N(C)C1CCCCC1
    x | 4
- N/C(=N\c1nc2ccccc2o1)NC(=O)/C=C/c1ccco1
    5.1 | 4
- Cc1ccc(Nc2nc(CSc3nnc(C)n3Cc3ccccc3)cs2)cc1
    x | 4
- O=C(O)c1ccc(-n2ccc(C(F)(F)F)n2)cc1
    -0.7 | x
- CCOc1nc(-c2ccccc2)ccc1-c1noc(-c2ccco2)n1
    x | -5
- CC(C)OC(=O)c1cccc2c1-c1ccccc1C2=O
    2.2 | x
- CCNC(=O)Cn1c(=O)c2c(ncn2Cc2ccccc2)n(Cc2ccccc2)c1=O
    x | 6
- COn1c(C)c(C)c2c3no[n+]([O-])c3ccc21
    6.0 | 10
- COc1ccc(-c2ccc(C#N)c(SCc3ccccn3)n2)cc1
    -1.1 | 1
- Nc1ccc(Cc2ccc(N)c(N)c2)cc1N
    x | -124
- COc1ccc(Nc2n[nH]c(N)c2C(N)=O)cc1
    x | -7
- NC(=S)Cc1c(Cl)sc2ccc(Cl)cc12
    -0.6 | x
- Nc1cc(=O)[nH]n1C1CCCCC1
    x | 2
- O=C(NCCc1ccccc1)c1csc2c1CCCCC2
    0.0 | 15
- C=CCN1C(=O)S/C(=C/c2ccc(C(=O)O)cc2)C1=O
    7.3 | 1
- COC(=O)c1ccc(C(=O)Nc2nc3ccc(C)cc3s2)cc1
    x | 14
- Clc1ccc(CCN2COc3ccc(Cl)cc3C2)cc1
    -3.2 | 7
- CCOC(=O)N/N=C/c1ccc(OC)c(CN2CCOCC2)c1
    x | -13
- O=C1/C(=C/c2ccco2)N=C(c2ccccc2)N1/N=C/c1ccc(F)cc1
    -3.6 | x
- CC[n+]1c(C)n(-c2ccccc2)c2ccc(N)cc21
    1.5 | -11
- C#CC(CC)(CC)NC(=O)c1c(C)noc1C
    5.3 | 6
- COC(=O)c1cccc2c1C(=O)c1ccccc1-2
    -0.6 | x
- CCc1cccc(CC)c1N1C(=O)C=CC1=O
    -2.5 | x
- O=C(c1ccccc1)c1cccnc1
    -0.2 | x
- CC(CN1CCOCC1)OC(=O)C1COc2ccccc2O1 (stereo not drawn)
    0.1 | 12
- COc1ccc(N/N=C(\C#N)C(=N)N2CCCCC2)cc1
    x | 38
- CCN(c1ccccc1)S(=O)(=O)c1ccc(O)cc1
    -0.7 | 7
- CN(CC(=O)NC(c1ccccc1)c1ccccc1)S(=O)(=O)c1ccc2c(c1)c(=O)n(C)c(=O)n2C
    x | 3
- O=C(CCc1ccc(S(=O)(=O)N2CCCCCC2)cc1)Nc1ccnn1Cc1cccs1
    x | 0
- NC(N)=NCCN1CCOCC1
    x | -24
- Cc1cc(C(=O)OCC(N)=O)c2ccccc2n1
    -1.7 | -4
- N#CC(=C1CCCC1)c1nc(-c2cc3ccccc3oc2=O)cs1
    -2.5 | 0
- COC(=O)COc1ccc2c(C)c(C)c(=O)oc2c1
    2.2 | -9
- COc1ccccc1CC(=O)N1CCN(c2cccc3[nH]ccc23)CC1
    -1.8 | x
- CCCS(=O)(=O)c1cc2cc(Cl)ccc2oc1=O
    -0.8 | x
- C=CCN1CCN(C(c2ccc(C)cc2)c2nnnn2C2CCCC2)CC1 (stereo not drawn)
    -1.8 | -7
- COc1ccc(Cl)cc1C(=O)CCC(=O)O
    -6.1 | 2
- Nc1ccc2c(c1)OC1(O)c3ccccc3C(=O)C21O (stereo not drawn)
    x | -1
- COC(=O)c1sc(N)c(C(=O)OC)c1CSc1nnc(Cc2ccccc2)n1C
    x | -13
- CC1CC(C)CN(C(=O)COC(=O)Cc2coc3cc(O)ccc23)C1 (stereo not drawn)
    x | 4
- CCN(CC)c1ccc(NC(=O)C2CCCCC2)c(N(CC)CC)n1
    -3.6 | x
- Cc1cccc(NC(=O)C(C)C)c1
    -0.2 | -7
- Cc1ccc2c(CN(C)c3ccccc3)cc(=O)oc2c1
    6.1 | 12
- NC(=O)c1sc(-c2cccs2)cc1N
    -2.5 | x
- C/C(=N\NC(=O)c1cc2ccccc2cc1O)c1cccnc1
    x | 0
- CCN1CCCC1CNC(=O)CCc1nc(-c2ccc(C)cc2)no1 (stereo not drawn)
    x | 6
- N#Cc1cnc(SCC(=O)Nc2cc(Cl)ccc2O)nc1N
    -0.5 | -3
- CCOC(=O)C1=C(C)N=c2s/c(=C\c3ccc(OC)cc3OC)c(=O)n2C1c1ccc(N(C)C)cc1 (stereo not drawn)
    -1.1 | x
- Cc1sc2nc(-c3ccc(N4C(=O)CCC4=O)cc3)oc(=O)c2c1C
    -0.1 | x
- COC(=O)N/N=C\c1cccc(OC(=O)c2cccs2)c1
    x | 13

# Going on with the list.
# Screens in order: MgrA DNA FP | Sa helicase inh
- CCOc1ccc(C/C(O)=C2\C(=N)CC(C)(C)CC2=O)cc1OCC
    x | 10
- Nc1ccc(-c2cc(N)n[nH]2)cc1
    x | 8
- O=C(COC(=O)c1ccccc1F)NC(c1ccccc1)c1ccccc1
    -3.8 | 14
- Cc1ccc(NC(=O)CCc2c(C)nn3cnnc3c2C)cc1
    x | 3
- COc1ccc(NC(=O)CSc2nc(O)cc(=O)n2-c2ccccc2OC)cc1
    2.8 | -2
- CC(C)NCC(O)c1ccc(NS(C)(=O)=O)cc1 (stereo not drawn)
    3.5 | x
- CN(C)C(=O)Cc1c(Cl)sc2ccccc12
    0.2 | x
- COC(=O)c1cc(OC)c(OC)cc1N1C(=O)CCC1=O
    x | -37
- COc1cc(C2NC(=O)N(C)C(C)=C2C(=O)OC2CCCC2)cc(Br)c1O (stereo not drawn)
    -2.5 | x
- CCOC(=O)N1CCN(C(=O)CNC(=S)N(Cc2cccs2)C2CCCCC2)CC1
    0.1 | 5
- O=C(c1ccccc1)N1CCC(c2nc3c(nnn3Cc3ccccc3)c(=O)[nH]2)CC1
    0.3 | -1
- CC1CCc2cc(F)ccc2N1S(=O)(=O)c1c(N)n(C)c(=O)n(C)c1=O (stereo not drawn)
    x | 5
- CCOC(=O)N1CCC(NC(=O)C2CCCN(Cc3nc(-c4cccc(C)c4)oc3C)C2)CC1 (stereo not drawn)
    -1.1 | 16
- O=C(NCC1CCN(Cc2ccc(Cl)cc2)CC1)c1[nH]nc2c1COc1ccccc1-2
    x | 3
- CNC(=S)N(Cc1ccco1)Cc1cc2cc(C)ccc2n2nnnc12
    -2.2 | 7
- Cc1cccc(C(=O)N2CCN(c3ccc(N4CCOCC4)nn3)CC2)c1
    0.8 | 14
- O=C1Nc2cc(C(=O)N3CCN(C(=O)c4ccco4)CC3)ccc2Sc2ccccc21
    x | 22
- CCc1ccccc1N(CC)C(=O)Cn1ncc2c1-c1ccccc1OC2
    -0.7 | 13
- Cn1c(=O)c2c(nc(N3CCN(C(=O)c4ccco4)CC3)n2CCSc2ncccn2)n(C)c1=O
    x | 6
- Oc1oc(C=Nc2ccccc2)c2ccccc12
    -0.1 | x
- CC(=O)N1N=C(c2c(-c3ccccc3)c3cc(Cl)ccc3[nH]c2=O)CC1c1ccccc1F (stereo not drawn)
    -2.1 | x
- O=C(CCc1ccco1)Nc1cccc(-c2nc3ccccc3[nH]2)c1
    x | -4
- Cc1ccc(OCC(=O)N2CCC(C)CC2)cc1C
    -0.7 | 4
- COc1ccc2c(c1OC)C(=O)O[C@H]2[C@H]1c2c(cc3c(c2OC)OCO3)CCN1C
    0.5 | x
- CC(C)(C)OC(=O)NC1CCN(C(=O)CSCC(=O)O)CC1
    -0.9 | x
- COc1ccc2c(COc3cccc(F)c3)cc(=O)oc2c1
    x | -21
- CCC(C)(C(=O)NC1CCCCC1)N(C)C(=O)Cc1cccs1 (stereo not drawn)
    0.2 | 13
- CCOC(=O)c1c(NC(=O)c2ccccc2F)sc(C(=O)Nc2cccc(C(F)(F)F)c2)c1C
    2.2 | x
- Cc1cc(NCc2ccccn2)n2c(nc3ccccc32)c1C#N
    x | -24
- CN(Cc1ccc(C(C)(C)C)cc1)C(=O)c1ccc(N(C)C)cc1
    x | -5

# Copied from the results shown for reference:
# Screens in order: MgrA DNA FP | Sa helicase inh
- Cc1cc(NCc2ccccn2)n2c(nc3ccccc32)c1C#N
    x | -24
- CN(Cc1ccc(C(C)(C)C)cc1)C(=O)c1ccc(N(C)C)cc1
    x | -5

# The results go on:
# Screens in order: MgrA DNA FP | Sa helicase inh
- Nc1ccccc1C(=O)NNC(=O)c1ccco1
    -0.5 | x
- Nc1ncnc2c1ncn2[C@@H]1O[C@H](CO)[C@H](O)C1O (stereo partly drawn)
    0.5 | x
- NC(=O)C1CCN(c2ncnc3nc[nH]c23)CC1
    x | -9
- COc1ccc(C(=O)/C=C2/NCC(C)NC2=O)cc1 (stereo not drawn)
    x | 1
- CCCCn1nnnc1COC(=O)CCc1c[nH]c2ccccc12
    x | 18
- CNc1ccccc1C(=O)NC(C)(C)C
    0.9 | x
- CC(=O)[C@H]1CC[C@H]2[C@@H]3C=CC4=CC(=O)CC[C@@]4(C)[C@@H]3CC[C@]12C
    -1.1 | x
- Cc1ccc(NC(=O)CSc2cccc[n+]2[O-])c(Br)c1
    0.0 | 7
- O=C(CSc1nnc(-c2ccccc2)n1CCN1CCOCC1)NC1CCCCC1
    -5.8 | 15
- COc1ccc(-c2cn(-c3ccc(C)c(Cl)c3)c(=S)[nH]2)cc1OC
    -0.3 | 4
- COc1ccc(-c2nc3ccccn3c2Nc2ccc3c(c2)OCO3)cc1
    x | -24
- O=C(Nc1c(-c2ccccc2)c2cc(Br)ccc2[nH]c1=O)c1ccccc1
    x | -7
